Methyltransferases = Primary Screen for Target Class Profiling of Small Molecule Inhibitors of Methyltransferases; calls only at 40 µM; purified enzyme, MTase-Glo SAH luminescence; active compounds read low; AID 1745853, 2022; 3.9% of 25,000 active; active = -50% or lower on at least one of six enzymes; inconclusive = the cases between; inactive = as a rule above -30% on all six;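 note: enzymes were COMT GAMT GNMT HNMT NNMT and PNMT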
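Each enzyme was assayed with SAM and its substrate. SAH formation detected by MTase-Glo luminescence; single-point 40 uM screen[…].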
Calls only; i = inactive; u = inconclusive; + = active, no number. % is set by controls: 0 for no effect and ±100 for the full control effect.

SMILES	Methyltransferases
CCCN1C(=O)c2cc(C(=O)NCCc3ccc(Cl)cc3)nn2CC1(C)C(=O)NC1CCCC1 (stereo unspecified)	i
Cc1cccc(-c2n[nH]n3c2nc(=O)c2ccc(C(=O)NCc4ccccc4Cl)cc23)c1	i
NC(=O)c1cccc(-c2cc(O)cc(OC(=O)NC3CCCCC3)c2)c1	i
CCOc1ccc(CCNC(=O)CCc2nnc3n(CC(C)C)c(=O)c4ccccc4n23)cc1	i
CN(C)CCc1c[nH]c2ccc(C[C@H]3COC(=O)N3)cc12	i
O=C1CN(Cc2ccc(Br)cc2)S(=O)(=O)c2ccccc2N1Cc1ccc(F)cc1	i
Cn1cc(-c2cc(=O)c3ccnc(NC4CCOCC4)c3o2)cn1	i
O=C(OC[C@H]1O[C@@H](Oc2ccccc2COC(=O)C2(O)C=CCCC2O)[C@H](O)[C@@H](O)[C@@H]1O)c1ccccc1 (stereo partly specified)	i
CC(C)CCNC(=O)CCc1nnc2n(Cc3ccc(F)cc3)c(=O)c3ccccc3n12	i
CC(C)Cn1c(=O)c2ccccc2n2c(SCc3ccc(F)cc3)nnc12	i
CN1Cc2nc(OCc3ccc(F)cc3)ccc2OCC1=O	i
C=CCn1c(=O)c2ccc(C(=O)NCC(C)C)cc2n2c(=O)n(CC(=O)Nc3ccc(F)cc3)nc12	i
S=c1[nH]c(-c2ccccc2)cn1-c1ccccc1	u
O=S(=O)(c1cccnc1)N1CC(F)(F)C[C@H]1c1nc(C2CC2)no1	i
CCNC(=O)Nc1ncc(-c2cc(-c3c(C)cc(OC)cc3C)nc(-c3cnccn3)n2)s1	i
CCN(CC)CC(O)Cn1c2c(c3cc(C)ccc31)CCCC2=O (stereo unspecified)	i
CC(=O)O[C@H]1CC[C@@]2(C)C(CC[C@@H](C)[C@]23Cc2c(O)cc4c(c2O3)CN([C@@H](CCC(=O)O)C(=O)O)C4=O)C1(C)C (stereo partly specified)	i
CN(CCNc1nc(CCN)nc2ccccc12)S(C)(=O)=O	i
Cc1ccc(OCc2nc(C3CCN(S(=O)(=O)Cc4ccccc4F)C3)no2)cc1 (stereo unspecified)	i
O=C(NC1CCCCC1)[C@@H]1C[C@@H](O)CN1C1CCN(C(=O)c2ccccc2F)CC1	i
CCCn1c(=O)c2ccccc2n2c(SCC(=O)Nc3ccc4c(c3)OCCO4)nnc12	i
Cc1cc(C(=O)NC2CC(C)(C)Cc3nc(N4CCOCC4)ncc32)nn1C (stereo unspecified)	i
CN1CCN(c2nc3c(c(=O)[nH]2)CCN(Cc2cccnc2)CC3)CC1	i
CC(=O)N1CCC(NCc2cccnc2Oc2ccccc2C)CC1	i
CC(=O)N1CC2(CCN(C(=O)NCc3ccccc3)CC2)CC1C(=O)O (stereo unspecified)	i
(continued)
SMILES	Methyltransferases
CCOC(=O)c1cc2n(n1)CC(C)(C(=O)NCc1ccc(C)cc1)N(C1CC1)C2=O (stereo unspecified)	i
COc1ccc(NC(=O)c2c(C)nc3n2CCC(Nc2ccccc2C)C3)cn1 (stereo unspecified)	i
CCN1CCN(C2(C(=O)NCCC3CCCCO3)Cc3ccccc3C2)CC1 (stereo unspecified)	i
O=C(c1ccon1)N1CCN(Cc2cnn3cccnc23)CC(O)C1 (stereo unspecified)	i
Cc1nccn1CCCC(=O)N1CC[C@](C)(O)[C@H](C)C1	i
CCOc1ccc(CNC(=O)c2ncn3c2C(=O)N(C2CC2)C(C)(C(=O)NCc2cccc(C)c2)C3)cc1 (stereo unspecified)	i
O=C(NC1CC1)[C@@H]1CN(CCCc2ccccc2)C[C@H]1CO	i
Cc1ccccc1CN1C(=O)c2ccc(-c3ccco3)n2CC1(C)C(=O)NC1CCCCC1C (stereo unspecified)	i
CCCN1C(=O)c2cc(C(=O)NCc3ccc(OCC)cc3)nn2CC1(C)C(=O)NC1CCCC1 (stereo unspecified)	i
CCOC(=O)c1cc2n(n1)CC(C)(C(=O)NC1CCCCC1)N(c1cc(C)cc(C)c1)C2=O (stereo unspecified)	i
CC1(C)CC(NC(=O)C(=O)Nc2ccc(Br)cc2)CC(C)(C)N1	i
Cc1ccc2c(c1)c(-n1cccc1)c1n2CC(C)(C(=O)NCCC(C)C)N(Cc2ccco2)C1=O (stereo unspecified)	i
CC(=O)[C@H]1CC[C@H]2[C@@H]3C=CC4=CC(=O)CC[C@@]4(C)[C@@H]3CC[C@]12C	i
CC(C)C(=O)N1CCC2(CCC(=O)N(CC3CC3)CC2)CC1	i
C/C=C/C=C/C=C/C(=O)O[C@@H]1C=C(CO)[C@](O)(CO)[C@@]2(C)CCCC(C)(C)[C@H]12	i
COc1ccc(CN2Cc3[nH]nc(-c4cnc(OC)nc4)c3CC2=O)cc1	i
COC(=O)c1cc(Br)cnc1N1CCC(NC2CCCCC2)C(O)C1 (stereo unspecified)	i
CC(C)CCn1c(=O)c2ccccc2n2c(CCC(=O)NCCCN3CCOCC3)nnc12	i
Cc1ccc(CN2C(=O)c3nc4ccccc4n3CC2(C)C(=O)NC2CCCC(C)C2C)cc1 (stereo unspecified)	i
CC1(C(=O)NC2CCCC2)Cn2c(cc3sccc32)C(=O)N1Cc1ccccc1F (stereo unspecified)	i
Cc1cccc(Cn2nc(C3CCCNC3)n(-c3ccccc3)c2=O)c1 (stereo unspecified)	i
NCCC(=O)N1CCCC(N2CCN(c3ccccc3F)CC2)C1 (stereo unspecified)	i
CCOC(=O)c1cc2n(n1)CC(C)(C(=O)NCc1ccccc1OC)N(c1ccc(C)cc1C)C2=O (stereo unspecified)	i
CCCn1c(=O)c2ccccc2n2c(SCC(=O)Nc3ccc4c(c3)OCO4)nnc12	i
Nc1ccccc1NC(=O)c1ccc(CNc2nccc(-c3cccnc3)n2)cc1	u
More records:
SMILES	Methyltransferases
COCCNC(=O)[C@H]1C[C@H](Oc2cccnc2)CN1S(=O)(=O)c1cn(C)cn1	i
Cc1cc2[nH]c(=O)[nH]c2cc1S(=O)(=O)NCCc1ccccc1	i
CC1(C(=O)NC2CCCCCC2)Cn2c(c(-n3cccc3)c3cc(F)ccc32)C(=O)N1Cc1cccc(F)c1 (stereo unspecified)	i
O=C(O)CC1CCC(c2ccc(-c3ccc4nc(C(=O)NCc5ccc(OC(F)(F)F)cc5)cn4c3)cc2)CC1 (stereo unspecified)	i
O=C(Cn1nc2c(cc1=O)CCCC2)N1CCOCC1	i
C[C@@H]1O[C@@H](O[C@H]2[C@H](OC(=O)[C@]34CCC(C)(C)C[C@H]3C3=CCC5[C@@]6(C)CC[C@H](O[C@@H]7O[C@H](C(=O)O)[C@@H](O)[C@H](O)[C@H]7O[C@@H]7O[C@H](CO)[C@H](O)[C@H](O)[C@H]7O)[C@@](C)(C=O)C6CC[C@@]5(C)[C@]3(C)C[C@H]4O)O[C@H](C)[C@H](O[C@@H]3O[C@H](C)[C@H](O)[C@H](O)[C@H]3O)[C@@H]2O)[C@H](O)[C@H](O)[C@H]1O[C@@H]1OC[C@@H](O)[C@H](O[C@@H]2O[C@H](CO)[C@@H](O)[C@H](O)[C@H]2O)[C@H]1O (stereo partly specified)	i
CN1C(=O)c2cc(C(=O)NCCCN3CCCCC3)nn2CC1(C)C(=O)NC1CCCC1 (stereo unspecified)	i
COc1ccccc1CCNC(=O)c1cc2n(n1)CC(C)(C(=O)NCc1ccccc1)N(C)C2=O (stereo unspecified)	i
Cc1ccc(-c2n[nH]n3c2nc(=O)c2ccc(C(=O)N4CCN(c5ccccc5F)CC4)cc23)cc1	i
O=C(Cn1ccc2cc(S(=O)(=O)N3CCCCC3)ccc21)NCCC1=CCCCC1	i
O=C(c1ccc(C#Cc2cccc(F)c2)cn1)N1CC2CC2C1 (stereo unspecified)	i
CC12CCC(OC3OC(CO)C(O)C(O)C3OC3OC(CO)C(O)C(O)C3O)CC1CCC1C2CCC2(C)/C(=C3/COC(=O)C3)CCC12O (stereo unspecified)	i
Cn1c2c(c3ccccc31)C(C(=O)NCc1ccc(F)cc1)N(c1cccc(Cl)c1)C(=O)CS2 (stereo unspecified)	i
CCOCCCNC(=O)C1c2c(n(C)c3ccccc23)SCC(=O)N1Cc1ccc(OC)cc1 (stereo unspecified)	i
Cc1ccnc(NC(=O)C(C)c2cccc(C(=O)c3ccccc3)c2)c1 (stereo unspecified)	i
O=C1CO[C@H]2CCN(CCCc3ccccc3)CC[C@@H]2N1c1ccccc1	i
Nc1ncccc1CNC(=O)[C@H]1CCC[C@H](O)C1	i
CCCn1c(=O)c2cc(Cl)ccc2n2c(SCC(=O)Nc3ccccc3F)nnc12	i
COc1ccc2cc3n(c2c1)CC(C)(C(=O)NC1CCCC1)N(Cc1ccc(C)cc1)C3=O (stereo unspecified)	i
Nc1nc(-n2cc(C(=O)O)c(=O)c3cc(F)c(N4CC(O)C4)c(Cl)c32)c(F)cc1F	+
C=Cc1ccc(O[C@@H]2O[C@H](CO[C@@H]3O[C@@H](C)[C@H](O)[C@@H](O)[C@H]3O)[C@@H](O)[C@H](O)[C@H]2O)cc1	i
CCCn1c(=O)c2ccc(Cl)cc2n2c(=O)n(Cc3c(F)cccc3Cl)nc12	i
COc1cccc(N2C(=O)NC(=NC3CCCC3)C23CCN([S+](=O)([O-])c2cccs2)C3)c1 (stereo unspecified)	i
Cc1cccc(N2CCN(CC(=O)Nc3ccc4[nH]c(=O)[nH]c4c3)CC2C)c1 (stereo unspecified)	i
O=C1Nc2ccccc2C(=O)N2CC[C@H](NS(=O)(=O)c3cccs3)[C@@H]12	i
(continued)
SMILES	Methyltransferases
CC(C)n1c(=O)c2ccc(C(=O)NC3CCCCC3)cc2n2c(=O)n(Cc3cccc(Cl)c3)nc12	i
O=[S+]1([O-])NC2(CCN(Cc3ccccc3C(F)(F)F)C2)CNc2ccccc21 (stereo unspecified)	i
NC(=O)c1ccc2nc(-c3ccc(Oc4ccc(Cl)cc4)cc3)[nH]c2c1	u
Cc1cc2c(cc3n2CC(C)(C(=O)NC2CCCCC2)N(Cc2ccco2)C3=O)o1 (stereo unspecified)	i
CC(C)c1ccc(N2C(=O)c3cc4sccc4n3CC2(C)C(=O)NC2CCCC(C)C2C)cc1 (stereo unspecified)	i
COc1ccc(-n2[nH]c(=O)c3[nH]c4cc(Cl)ccc4c(=O)c3c2=O)c(C)c1	i
CCCCN1C(=O)c2c(NC(C)=O)c3cc(F)ccc3n2CC1(C)C(=O)NCCC(C)C (stereo unspecified)	i
CC(=O)N1CC[C@]2(O)CCN(C(=O)CCCc3ccc(F)cc3)C[C@@H]2C1	i
Cc1ccc(CNC(=O)C2(C)Cn3nc(C(=O)NCc4ccc(F)cc4)cc3C(=O)N2C)cc1 (stereo unspecified)	i
CC(C)N1C[C@@H](F)[C@@H](OCc2nc3ccc(F)cc3[nH]2)C1	i
CCc1cc(N2CCOCC(O)(CN3CCCC3)C2)nc(N2CCCC2)n1 (stereo unspecified)	i
CC1(C)C2CCC(CO[C@@H]3O[C@H](CO[C@@H]4OC[C@](O)(CO)[C@H]4O)[C@@H](O)[C@H](O)[C@H]3O)C1C2 (stereo partly specified)	i
CC1(C)C2CCC1(C)C(OC(=O)C(O)(CC(=O)O)CC(=O)O)C2 (stereo unspecified)	+
Cc1ccc(C)c(NC(=O)c2ncn3c2C(=O)N(C2CC2)C(C)(C(=O)NCc2ccc(F)cc2)C3)c1 (stereo unspecified)	i
C#Cc1cnc2[nH]c(=O)n(C(CC)CC)c2n1	i
CCOc1ccc(CN2C(=O)c3cc4sccc4n3CC2(C)C(=O)NC2CCC(C)CC2)cc1 (stereo unspecified)	i
COC(=O)c1cc2n(n1)CC(C)(C(=O)NC1CCCC1)N(c1ccc(C)c(C)c1)C2=O (stereo unspecified)	i
CN(C)c1ccc(C(=O)N[C@H]2C[C@@H](c3nc(-c4ccc5ccccc5c4)no3)N(C)C2)cc1	i
CC(C)n1c(=O)c2ccc(C(=O)NC3CCCC3)cc2n2c(=O)n(Cc3c(F)cccc3Cl)nc12	i
COc1cccc(N2CCN(c3ccc4nnc(CCC(=O)N5CCN(c6ccc(F)cc6)CC5)n4n3)CC2)c1	i
C=CC(C)(C)C12CC3C(=O)N4C(CC5(C(C)(C)C=C)c6ccccc6NC45)C(=O)N3C1Nc1ccccc12 (stereo unspecified)	u

A second format for part of the listing above.
compound,Methyltransferases
Cc1ccc(CNC(=O)C2(C)Cn3nc(C(=O)NCc4ccc(F)cc4)cc3C(=O)N2C)cc1 (stereo unspecified),i
CC(C)N1C[C@@H](F)[C@@H](OCc2nc3ccc(F)cc3[nH]2)C1,i
CCc1cc(N2CCOCC(O)(CN3CCCC3)C2)nc(N2CCCC2)n1 (stereo unspecified),i
CC1(C)C2CCC(CO[C@@H]3O[C@H](CO[C@@H]4OC[C@](O)(CO)[C@H]4O)[C@@H](O)[C@H](O)[C@H]3O)C1C2 (stereo partly specified),i
CC1(C)C2CCC1(C)C(OC(=O)C(O)(CC(=O)O)CC(=O)O)C2 (stereo unspecified),+
Cc1ccc(C)c(NC(=O)c2ncn3c2C(=O)N(C2CC2)C(C)(C(=O)NCc2ccc(F)cc2)C3)c1 (stereo unspecified),i
C#Cc1cnc2[nH]c(=O)n(C(CC)CC)c2n1,i
CCOc1ccc(CN2C(=O)c3cc4sccc4n3CC2(C)C(=O)NC2CCC(C)CC2)cc1 (stereo unspecified),i
COC(=O)c1cc2n(n1)CC(C)(C(=O)NC1CCCC1)N(c1ccc(C)c(C)c1)C2=O (stereo unspecified),i
CN(C)c1ccc(C(=O)N[C@H]2C[C@@H](c3nc(-c4ccc5ccccc5c4)no3)N(C)C2)cc1,i
CC(C)n1c(=O)c2ccc(C(=O)NC3CCCC3)cc2n2c(=O)n(Cc3c(F)cccc3Cl)nc12,i
COc1cccc(N2CCN(c3ccc4nnc(CCC(=O)N5CCN(c6ccc(F)cc6)CC5)n4n3)CC2)c1,i
C=CC(C)(C)C12CC3C(=O)N4C(CC5(C(C)(C)C=C)c6ccccc6NC45)C(=O)N3C1Nc1ccccc12 (stereo unspecified),u

Screens from PubChem.

Not all compounds are listed; count on the stated rates, not on these rows.
